Hsc70 ATP site: Hsc70 inhibitors, probe displacement, primary screen, biochemical, fluorescence polarization (AID 568); one-dose displacement, % at 20 µM; IC50 in µM for titrated hits; Hsc70 fluorescence polarization, probe displacement; higher % means a stronger effect; strong numbers were not always called active; 83,000 tested, under 10 active;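 active means displacement above 50% without optical interference and an IC50 on retest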;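 further: ATPase domain with a fluorescein-tagged ATP probe; 0% = vehicle and 100% = excess ADP; read after one hour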
MT1-MMP reporter: MT1-MMP gene expression reporter suppression – cell-based, luciferase reporter, luminescence (AID 618); MT1-MMP promoter luciferase reporter cells, luminescence; calls from a first round at 10 µM; hits with a dose series show EC50 in µM; hit rate 0.62% among 87,000;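 active means over half of the reporter light lost at 10 µM or EC50 under 50 µM; inactive means the rest and hits that failed the dose series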;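 further: actives suppress MT1-MMP promoter-driven transcription so potencies describe inhibitors; HT1080 fibrosarcoma cells; overnight exposure; toxic or luciferase-blocking compounds were not removed from the actives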
WNV protease inh: blocks West Nile virus NS2B-NS3 protease activity. P06935. WNV NS2B-NS3 protease, fluorogenic substrate Ex360/Em465; stronger effect = lower value. z-score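 (tested at a level between 10 and 100 µM)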. hit rate 0.18% among 65,000;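 active means z-score at -3 or under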;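 further: score is relative to mean and spread of the compound wells of a plate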
Target sequence (P06935 1371-1501 limits assumed): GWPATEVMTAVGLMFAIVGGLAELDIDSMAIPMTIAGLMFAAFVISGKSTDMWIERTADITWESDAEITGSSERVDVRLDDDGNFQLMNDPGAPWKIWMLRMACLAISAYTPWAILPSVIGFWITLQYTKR
Target sequence (P06935 1502-1679 limits assumed): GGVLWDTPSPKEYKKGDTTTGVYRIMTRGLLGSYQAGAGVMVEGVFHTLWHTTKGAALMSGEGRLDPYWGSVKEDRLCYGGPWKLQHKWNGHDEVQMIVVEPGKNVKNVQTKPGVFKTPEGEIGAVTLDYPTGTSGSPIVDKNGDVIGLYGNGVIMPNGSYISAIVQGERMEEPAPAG
* = called active by the depositor; i = inactive; / = not tested or not shown; + = active, no number.

item	SMILES	Hsc70 ATP site	MT1-MMP reporter	WNV protease inh
1	COc1ccccc1C(=O)Nc1nnc(-c2ccco2)s1	-0.3%	i	/
2	O=C(NC1CCN(Cc2ccccc2)CC1)C12CC3CC(CC(C3)C1)C2	-4.2%	i	/
3	O=C(CC(=O)c1cc(Cl)ccc1O)c1ccccc1	-2.3%	i	0.17
4	Cc1ccc(Cn2c(NCCc3ccccc3)nc3c2c(=O)n(C)c(=O)n3C)cc1	6.5%	i	0.91
5	c1ccc2c(N3CCCCC3)nc(N3CCCC3)nc2c1	0.5%	i	0.79
6	CC(Nc1cc(=O)n(C)c(=O)[nH]1)c1ccccc1 (centres undefined)	4.4%	i	-0.5
7	Cc1ccc(C)c(NS(=O)(=O)c2c(C)ccc3nsnc23)c1	-1.6%	i	-0.13
8	CCOc1ccccc1Nc1ncnc2ccccc12	2.4%	i	-1.02
9	O=C(CS(=O)(=O)Cc1ccccc1)Nc1cccnc1	-2.2%	i	-0.74
10	O=C(COC(=O)C1COc2ccccc2O1)NC1CCS(=O)(=O)C1 (centres undefined)	-1.7%	i	1.75
11	Cc1csc(NC(=O)c2cccn2C)n1	0.5%	i	/
12	O=C(CCc1ccccc1)NCCCN1CCOCC1	-2.1%	i	-0.5
13	COc1cnn(-c2ccccc2)c(=O)c1N(C)C	6.9%	i	-0.85
14	O=C1CSC(=O)N1CC(O)COc1ccc(Cl)cc1 (centres undefined)	-6.8%	i	-0.01
15	COC(=O)c1c(C(=O)OC)c(C)n(Cc2cccnc2)c1C	-2.1%	i	-1.23
16	Cn1c(Cc2cccs2)nnc1SCc1nc2ccccc2[nH]1	-5.2%	i	0.47
17	c1ccc(CN2CCN(c3nc(-c4ccccc4)nc(-n4ccnc4)n3)CC2)cc1	-4.3%	i	0.52
18	O=C(O)c1ccccc1C(=O)NCc1cccnc1	-2.0%	i	0.04
19	Cc1nn(Cc2ccccc2)c2c1C(c1ccncc1)C(C#N)=C(N)O2 (centres undefined)	0.2%	i	-0.34
20	Cc1ccc(C(=O)Nc2ccc(S(=O)(=O)N3CCN(C)CC3)cc2)o1	1.3%	i	-0.49

Some of the entries above in another layout:
16. Cn1c(Cc2cccs2)nnc1SCc1nc2ccccc2[nH]1
- Hsc70 ATP site = -5.2%
- MT1-MMP reporter = i
- WNV protease inh = 0.47

17. c1ccc(CN2CCN(c3nc(-c4ccccc4)nc(-n4ccnc4)n3)CC2)cc1
- Hsc70 ATP site = -4.3%
- MT1-MMP reporter = i
- WNV protease inh = 0.52

20. Cc1ccc(C(=O)Nc2ccc(S(=O)(=O)N3CCN(C)CC3)cc2)o1
- Hsc70 ATP site = 1.3%
- MT1-MMP reporter = i
- WNV protease inh = -0.49

19. Cc1nn(Cc2ccccc2)c2c1C(c1ccncc1)C(C#N)=C(N)O2 (centres undefined)
- Hsc70 ATP site = 0.2%
- MT1-MMP reporter = i
- WNV protease inh = -0.34

Following part:
item	SMILES	Hsc70 ATP site	MT1-MMP reporter	WNV protease inh
21	CC1(C)Cc2ccccc2C2CC(O)C(=O)N21 (centres undefined)	4.7%	i	0.74
22	COc1cc2c(cc1OC)CN(C(=O)CSc1nnc(C)s1)CC2	1.2%	i	0.91
23	O=C(CSc1nncs1)NC(=O)NCc1ccccc1	-1.7%	i	-0.51
24	CCC1CCCCN1Cc1ccc(OC)c(OC)c1 (centres undefined)	2.0%	i	1.02
25	O=C(CSc1nc2ccccc2c(=O)n1CCCO)NCc1ccccc1	0.5%	i	0.52
26	c1ccc(-c2nc(NCC3CCCO3)c3oc4ccccc4c3n2)cc1 (centres undefined)	-0.4%	i	/
27	CCOc1ccc(C2C(C(=O)c3ccco3)=C(O)C(=O)N2Cc2cccnc2)cc1OC (centres undefined)	1.7%	i	1.2
28	C=CCn1c(SCn2nnc3ccccc3c2=O)nnc1-c1ccc(F)cc1	-0.7%	i	-1.63
29	CCC(c1nnnn1C(C)(C)CC)N(CCCO)Cc1cc2cccc(C)c2[nH]c1=O (centres undefined)	-4.2%	i	-0.45
30	CCCn1c(N)c(C(=O)CSc2nc(C)cs2)c(=O)[nH]c1=O	1.7%	i	/
31	COc1ccc2c(c1OC)CCC2=O	-1.5%	i	/
32	O=C(NNC(=O)c1ccccc1[N+](=O)[O-])c1cnccn1	2.3%	i	/
33	Cc1ccc(N(CC(=O)O)C2SC(=O)NC2=O)cc1 (centres undefined)	1.0%	i	-0.01
34	Cc1nc2n[nH]c(N)c2c2c1COC(C)(C)C2	1.2%	i	-0.34
35	CCc1ccccc1NC(=O)c1ccc(F)c(S(=O)(=O)N2CCC(C(N)=O)CC2)c1	-4.2%	i	0.74
36	COCc1[nH][nH]c(=O)c1C=Nc1ccc(F)cc1F	3.1%	i	/
37	O=C1Cc2ccccc2N1c1ccccc1	-0.3%	i	0.27
38	CCOC(=O)C1=C(C)NC(C)=C(C(=O)OC)C1c1cccc(Cl)c1Cl (centres undefined)	-0.9%	i	-0.15
39	Cc1nc2ccccc2c2oc(C(=O)NC3CC3)cc12	0.0%	i	0.9
40	CCOC(=O)c1oc2ccccc2c1NC(=O)CN1CCN(C)CC1	-1.7%	i	-0.24
41	Cc1ccccc1OCc1nnc(SCC(=O)NCc2ccccc2)n1C	2.2%	i	-0.37
42	Cc1cc2n(n1)C(c1ccc(N(C)C)cc1)Nc1ccccc1-2 (centres undefined)	-1.4%	i	-1.53
43	O=C1CC(CCC(=O)NC2CC2)c2ccccc2N1 (centres undefined)	-7.4%	i	-1.12
44	Cc1cccc(C)c1NC(=O)N1CC=C(n2c(=O)[nH]c3ccccc32)CC1	-2.0%	i	0.24
45	COc1ccccc1CCNC(=O)c1ccoc1C	2.0%	i	0.22
46	COc1ccc(CCNc2oc(-c3ccco3)nc2C#N)cc1	-1.6%	i	-0.41
47	CC(=O)N1CCN(c2ccc(N=Cc3c(O)n(Cc4ccccc4)c(=O)[nH]c3=O)cc2)CC1	-2.6%	i	1.16
48	CC1=C(C(=O)Nc2ccc(F)cc2)C(c2ccc(C)o2)C2=C(CC(C)(C)CC2=O)N1 (centres undefined)	0.9%	i	-0.09
49	COc1ccc(C2CCN(Cc3cccnc3)CC2O)cc1 (centres undefined)	-2.6%	i	0.24
50	Cc1ccc(NC(=O)c2ccnc(C(C)(C)C)c2)cc1	3.4%	i	/
51	O=C(O)C1C2C=CC(C3CC23)C1C(=O)O (centres undefined)	-4.7%	i	0.05
52	O=C(Nc1ccc(N2CCCCC2)cc1)c1cncc(Br)c1	2.0%	i	0.62
53	O=C(COc1ccc2c(c1)C(=O)CC1(CCCCC1)O2)NCc1ccccn1	5.3%	i	-0.15
54	O=C1/C(=C/c2cccc3ccccc23)CCCc2ccccc21	-1.8%	i	/
55	COC(=O)C1CCN(C(=O)COC(=O)c2n[nH]c3ccccc23)CC1	-2.4%	i	0.31
56	CCN(CC)CCN(Cc1cc2cc(C)ccc2[nH]c1=O)C(=O)Nc1ccccc1OC	-1.7%	i	-0.68
57	CC(C)(C)c1cc(C(=O)O)n[nH]1	-1.1%	i	/
58	N#C/C(C(N)=O)=c1/ccc2c(c1)N1C3=C(CCCC3)CC3CCCCC31N=2 (centres undefined)	-0.1%	i	-0.45
59	CNS(=O)(=O)c1cc(OCC(N)=O)c(C)cc1Cl	-1.7%	i	1.88
60	CCCCOc1ccc(C)cc1CN(CCO)CCO	-6.2%	i	0.4
61	C=CCn1c(SCC(=O)Nc2ccccc2CC)nnc1-c1ccncc1	-0.2%	i	-0.93
62	O=C(CN1C(=O)c2ccccc2C1=O)N1CCN(c2ccccn2)CC1	0.4%	i	0.09
63	Nc1nnnn1NCc1cccc(OCc2ccccc2)c1	-1.5%	i	-0.11
64	CCN(CC)CCOCCOc1ccccc1F	-0.8%	i	/
65	O=C(COC(=O)CCC(=O)c1ccc2c(c1)OCCO2)NCc1ccc2c(c1)OCO2	-3.5%	i	1.01
66	FC(F)(F)c1cc(-c2ccccc2)nc(-n2cncn2)n1	-2.2%	i	-1.22
67	Cc1ccccc1N(CC(=O)NCc1ccncc1)S(C)(=O)=O	3.2%	i	-0.47
68	O=C(O)c1cc2ccccc2n1-c1ccccc1	-9.0%	i	-0.81
69	O=C(c1ccc(Cl)s1)N1CCN(c2nc3ccccc3s2)CC1	4.3%	i	0.59
70	CCCn1nc(C(=O)Nc2cc(C(=O)OC)ccc2C)c2ccccc2c1=O	0.4%	i	-0.24

The list goes on:
item	SMILES	Hsc70 ATP site	MT1-MMP reporter	WNV protease inh
71	Cc1noc(N)c1C(=O)Nc1ccc(F)cc1	4.4%	i	-0.76
72	Cc1cc(N2CCCC2)nc(-c2ccccc2O)n1	-8.4%	i	0.1
73	COc1ccccc1N(CC(=O)NC1CCCCC1)C(=O)CCC(=O)Nc1ccccn1	3.0%	i	-0.5
74	O=C(c1ccc(-n2cnnn2)cc1)N1CCN(C(c2ccccc2)c2ccccc2)CC1	6.8%	i	0.57
75	CCOC(=O)C1CCN(Cc2ccc(F)c(Br)c2)CC1	-6.9%	i	0.72
76	Cc1cc(C)n2nc(S(=O)(=O)N(C)c3ccccc3)nc2n1	7.8%	i	-0.08
77	COc1ccc(CNC(=O)c2cc(-c3ccccc3O)n[nH]2)cc1	3.1%	i	0.39
78	Cc1cc(=O)oc2cc(OCC(O)CN3CCc4ccccc4C3)ccc12 (centres undefined)	-7.5%	i	-0.52
79	Cn1c(=O)[nH]c(=O)c2c1nc(CN1CCN(c3cccc(Cl)c3)CC1)n2Cc1ccccc1Cl	0.7%	i	-1.19
80	CN(C)CCCNCCCNC(=O)c1ccco1	-0.9%	i	-1.12
81	CCOC(=O)c1c(C)n(C)c2ccc(O)c(CN(CC)CC)c12	4.3%	i	/
82	Cc1cc2cc(CNC(=O)C3CC3)ccc2n1C	0.1%	i	0.37
83	O=C1[C@@H]2[C@H](C(=O)N1Cc1cccnc1)[C@H]1C=C[C@@H]2C1	2.2%	i	/
84	CC(O)Cn1c(=O)c2c(nc(Br)n2Cc2ccccc2)n(C)c1=O (centres undefined)	-0.6%	i	/
85	Cn1c(=O)[nH]c(=O)c2c1nc(Br)n2CCSc1ncccn1	-4.1%	i	-1.16
86	O=C(COC(=O)C1c2ccccc2Oc2ccccc21)NC1CCS(=O)(=O)C1 (centres undefined)	-2.8%	i	0.23
87	S=c1nc(-c2ccccc2)[nH]n1-c1ccccc1	-8.7%	i	0.04
88	COc1ccc(N(C(=O)Nc2ccc(Cl)cc2)C2=NCCC2)cc1	-0.1%	i	-0.32
89	COc1ccc(N2CCN(S(=O)(=O)c3cccs3)CC2)cc1	-13.1%	i	-0.46
90	Cc1ccc(NC(=O)c2c(O)c3ccccc3n(C)c2=O)nc1	-9.2%	i	-0.08
91	CCNCc1cc2cc(C)ccc2[nH]c1=O	-10.3%	i	0.25
92	Cc1ccc(S(=O)(=O)Nn2c(C)nnc2-n2nc(C)cc2C)cc1	-0.7%	i	-0.64
93	Fc1ccc(Cn2nnnc2CN2CCN(C3CCCC3)CC2)cc1	-5.1%	i	-0.96
94	CCOC(=O)C(NC(=O)c1ccccc1)=C1CCCCC1	-2.3%	i	2.52
95	CCCc1cc(C(=O)Nc2sc(C)c(CC)c2C#N)no1	5.2%	i	0.33
96	CC(C)(C)c1cc(NC(=O)COC(=O)c2ccc3c(=O)n4c(nc3c2)CCC4)n(-c2ccccc2)n1	-1.4%	i	0.01
97	O=C(NC1CCCCCC1)c1cc(S(=O)(=O)N2CCOCC2)ccc1N1CCCCC1	1.3%	i	-0.47
98	Cc1cc(NS(=O)(=O)c2ccc(OCCNS(C)(=O)=O)cc2)no1	6.1%	i	-0.95
99	CC(C)Cn1c(N)c(C(=O)NCc2cccs2)c2nc3ccccc3nc21	3.9%	i	-0.44
100	O=C(CN(C(=O)c1cc2c(s1)CCC2)C1CCCC1)NCc1cccs1	-2.9%	i	2.07
101	Cc1ccc2c(NC(=O)C3CC3)c(C)ccc2n1	1.0%	i	-0.78
102	CCOCN(C(=O)Cn1c(COC)nc2ccccc21)c1c(C)cccc1CC	-8.9%	i	/
103	CCCC(=O)NCCc1ccc(S(N)(=O)=O)cc1	3.1%	i	/
104	COc1ccc(C2c3c4c(n(C)c3CCN2C)CCN(C)C4c2ccc(OC)cc2)cc1 (centres undefined)	2.2%	i	/
105	CCOC(=O)N1CCC(NC(=O)C2CCCN(S(=O)(=O)c3ccc4c(c3)oc(=O)n4C)C2)CC1 (centres undefined)	0.5%	i	/
106	CCCCNC(=O)CCCn1c(=O)[nH]c2ccc(Br)cc2c1=O	0.5%	i	0.54
107	COc1cccc(NC(=O)C2CCCN(S(=O)(=O)c3cccc4cccnc34)C2)c1 (centres undefined)	0.0%	i	-0.29
108	COc1cccc(-n2c(C)nnc2SCC(=O)Nc2ccccc2N2CCOCC2)c1	-9.6%	i	0.06
109	O=C(O)CCNS(=O)(=O)c1ccc2c(c1)Cc1ccccc1-2	5.1%	i	-0.79
110	COc1ccc(S(=O)(=O)N(CCc2ccccc2)CC(=O)O)cc1C	-2.8%	i	/
111	Cc1ccc(NC(=O)NCCc2ccc(S(N)(=O)=O)cc2)cc1	3.5%	i	-0.16
112	c1ccc2c(c1)ncn2CCN1CCCCC1	-3.2%	i	/
113	COc1ccc(C(=O)N2CCC(n3c(C)nc4cc(F)ccc43)CC2)cc1OC	0.6%	i	0.4
114	C1CCCC(N2CCNCC2)CC1	3.6%	i	/
115	Cc1cc(/C=c2/sc3nc4ccccc4n3c2=O)c(C)n1-c1ccccn1	-6.2%	+	0.33
116	CCn1cc(C(=O)Nc2ccc(-n3cnnn3)c(OC)c2)c(=O)c2ccc(C)nc21	-2.6%	i	0.24
117	Cc1cc(NC(=O)CN2CCN(c3ncccn3)CC2)no1	3.5%	i	0.69

Screens from PubChem BioAssay.
